UUG fidelity: yeast start codon fidelity modulation. S. cerevisiae UUG-firefly luciferase reporter, luminescence/redox ratio. activity score, % at 18.7 µM. 350,000 compounds, 0.13% hits. AID 602363;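 active means replicate mean at a twofold rise or more, about +100% in these data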;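 further: firefly luciferase made from a UUG start codon reports start codon fidelity; reporter light over untreated wells divided by growth signal over untreated wells; some hits fall short of that in this replicate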
HIV Env fusion: inhibitors of HIV Env-mediated cell fusion; 360,000 compounds, 1.1% hits; inhibition, % at 12.3 µM; HeLa-JRFL Env/CEM21 cell fusion, luciferase;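 active means mean replicate inhibition score of at least 50 and every replicate individually at or above 50; inconclusive means only one of the two criteria met; inactive means mean below 50 and not all replicates reaching 50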;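 further: 0% = plate neutral controls and 100% = maraviroc near 300 nM; one replicate is shown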
CSC inhib: blocks cancer stem cells; cancer stem cell-like cells viability, luminescence; AID 2717; inhibition, % at 7.5 µM; 300,000 compounds, 1.1% hits;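 active means mean at 75% or more and at least half the replicates too; inconclusive means mean and replicates disagree; tested in HMLE shEcad cells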;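 further: 0% = median of negative and 100% = median of positive control wells; the first replicate is given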
Rce1 inhib: yeast Ras-converting enzyme inhibition. calls only. Q03530. 290,000 compounds, 0.27% hits. yeast membranes, quenched prenylated peptide cleavage fluorescence;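 active means fall in fluorescence gain of 50% or more versus controls, with final raw signal at or below 3038400; inconclusive means same 50% fall but final raw signal above 3038400; inactive means fall in fluorescence gain under 50%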;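 further: plate controls were neutral control wells for no effect and wells lacking membranes for full effect; tested at 10 µM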
eIF4H FP inh: inhibitors of RNA binding by human eIF4H; eIF4H fluorescence polarization binding assay; inhibition, % at 35 µM; AID 2012; 290,000 compounds, 0.94% hits;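 active means 50% or more with normal probe brightness, or confirmed in later tests; inconclusive means above 50% with abnormal brightness, or retests that disagree; inactive means below 50% or failed in later tests; about a fifth of its hits are not listed in these tables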;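 further: calls also rest on retests at 20 µM and on dose response follow-up; 0% = protein and probe with vehicle and 100% = probe without protein; strong numbers were not always called active; many hits fall short of the cut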
PABP polyA inh: PABP-poly(A) binding inhibition; P11940; PABP-poly(A) RNA binding, fluorescence polarization; inhibition, % at 35 µM; 290,000 compounds, 1% hits;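 active means 50% or more with normal probe brightness, or confirmed in later tests; inconclusive means above 50% with abnormal brightness, or retests that disagree; inactive means below 50% or failed in later tests; about a fifth of its hits are not listed in these tables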;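 further: calls also rest on retests at 20 µM and on dose response follow-up; controls were probe without protein and protein plus probe with vehicle; some compounds called inactive have numbers as strong as hits; many hits fall short of the cut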
Target sequence (P11940 whole entry, looked up): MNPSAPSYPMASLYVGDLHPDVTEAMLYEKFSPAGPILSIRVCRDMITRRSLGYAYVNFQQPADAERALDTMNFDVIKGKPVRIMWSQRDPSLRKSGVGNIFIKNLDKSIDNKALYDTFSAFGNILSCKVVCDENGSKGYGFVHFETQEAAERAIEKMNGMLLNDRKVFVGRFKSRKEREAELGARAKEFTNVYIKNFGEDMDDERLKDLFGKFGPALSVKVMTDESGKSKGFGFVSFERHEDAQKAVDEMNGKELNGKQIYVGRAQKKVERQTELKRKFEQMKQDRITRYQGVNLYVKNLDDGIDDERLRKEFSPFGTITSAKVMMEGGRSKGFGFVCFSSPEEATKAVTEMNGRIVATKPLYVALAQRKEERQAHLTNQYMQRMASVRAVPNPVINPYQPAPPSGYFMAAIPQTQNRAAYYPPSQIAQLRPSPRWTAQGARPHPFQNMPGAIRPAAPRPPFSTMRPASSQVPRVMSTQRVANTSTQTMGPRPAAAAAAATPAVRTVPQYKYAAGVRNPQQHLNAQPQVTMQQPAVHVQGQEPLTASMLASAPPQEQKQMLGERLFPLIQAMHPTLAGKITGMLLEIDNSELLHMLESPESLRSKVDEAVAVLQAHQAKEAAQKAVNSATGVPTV
MT1-MMP act inh: MT1-MMP (human) activation inhibition; P50281; 360,000 compounds, 0.061% hits; HT1080 RFP-PRO-GFP cells, GFP/RFP ratio fluorescence, overnight; percent of plate control window, DMSO zero; GFP/RFP ratio change, % at 20 µM; AID 651647;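 active means GFP/RFP ratio change of at least 30% with cell ATP level not reduced by more than half and red fluorescence within 50% of control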; further: strong numbers were not always called active
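Test system: HT1080 cells expressing an RFP-PRO-GFP fluorescent reporter construct / Compound dosing: single-point 20 µM compound, 1% DMSO / Schedule: cells overnight before dosing, compound overnight, 37 °C, 5% CO2 / Evaluation: GFP/RFP fluorescence ratio / Control set: DMSO and RFP-L50D-GFP cell wells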
eIF4H FP inh retest: further read-out of eIF4H FP inh, marked with its call; inhibition, %; compound at 20 µM; confirmation average;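 mean of two retest wells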
PABP polyA inh retest: further read-out of PABP polyA inh, marked with its call; inhibition, %; compound at 20 µM; confirmation repeats;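 mean of two retest wells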
MT1-MMP act inh RFP: second read-out of MT1-MMP act inh, no call of its own (marks repeat the call); RFP signal change, %; measured here: RFP expression control read;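 0 = vehicle wells; hits needed this value within 50% of zero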
Numbers without * were called inactive; i = inactive; ? = inconclusive; / = not tested or not shown. Only part of the results is shown; the hit share may differ from the screen's.

SMILES	UUG fidelity	HIV Env fusion	CSC inhib	Rce1 inhib	eIF4H FP inh	PABP polyA inh	MT1-MMP act inh	MT1-MMP act inh RFP	others
O=S(=O)(C(=CNc1ccccc1)S(=O)(=O)c1ccccc1)c1ccccc1	/	/	-4	i	2	6	4	4
Cc1ccc(N2CCCn3c2cc(C)c(C#N)c3=O)cc1Cl	-9	12	-14	i	8	-5	0	-5
Cc1ccc2cc(C=C(C#N)C#N)c(N3CCCCC3)nc2c1	/	/	17	i	23	5	-3	0
CC(C)(C)c1ccc(CSc2nnc(-c3ccccn3)n2Cc2ccco2)cc1	-15	/	52	i	-11	5	-10	-13
Cc1ccc(NC(=O)NC2=N/C(=C(/C#N)C(=O)N3CCCC3)c3ccccc32)cc1	-9	-157	-2	i	6	-7	-1	6
CC(=O)N/C(=C\c1ccccc1)C(=O)OCC(=O)c1c(N)n(C)c(=O)n(C)c1=O	-3	-6	-19	/	/	/	2	3
CC1=C(C(=O)Nc2cc(C(=O)N3CCN(c4cccc(C)c4C)CC3)ccc2C)SCCO1	-9	4	-5	i	-9	6	0	-10
COc1ccc(N(CC(=O)Nc2cc(C)cc(C)c2)S(=O)(=O)c2ccccc2[N+](=O)[O-])c(OC)c1	/	-11	-10	i	-3	15	-3	-2
Cc1cccc(NC(=O)CNC(=O)C23CC4CC(CC(Cl)(C4)C2)C3)n1	/	8	-5	i	/	/	1	-3
Cc1cccc(N2CCN(S(=O)(=O)c3ccc4c(c3)n(C)c(=O)c(=O)n4C)CC2C)c1 (stereo unspecified)	-8	-7	4	i	3	4	-16	-2
CCCCn1c(N)c(N(CC(C)C)C(=O)CC(NC(=O)c2ccccc2)c2ccccc2)c(=O)[nH]c1=O (stereo unspecified)	/	4	-2	i	/	/	-2	1
COC(=O)c1sccc1N/N=C/c1ccc(OC)c(OC)c1OC	-15	-59	1	i	-1	30	0	-2
COc1cccc(CNC(=O)C2CCC(CNS(=O)(=O)c3cccc4nsnc34)CC2)c1 (stereo unspecified)	-5	0	-14	i	4	-6	1	-4
CC(C)N1C(=O)CCC1C(=O)N1CCC(Cc2ccccc2)CC1 (stereo unspecified)	-5	3	2	i	-8	7	-1	-4
O=C(Cc1ccc(F)cc1)Nc1c2c(nn1-c1cccc(Cl)c1)CS(=O)C2 (stereo unspecified)	-1	?	-20	i	-7	-3	-2	0
CCOc1ccc(CCNC(=O)COc2cccc(-n3cnnn3)c2)cc1OCC	-15	1	-9	i	/	/	0	0
CCCCNC(=S)NNC(=O)C1=NN(c2cc(C)ccc2C)C(=O)CC1	-29	3	2	i	8	-6	-2	2
Cn1[nH]c2c(c1=O)[C@H](c1ccc(F)cc1)O[C@H](CCc1ccccc1)C2	-13	16	/	/	/	/	-2	2
CCCCN(C)C(=O)c1cc2cc([N+](=O)[O-])cc(OC)c2oc1=O	-11	-4	-11	i	4	-5	4	-2
O=C(NCCCC(=O)N1CCCCC1)c1ccc(Cl)cc1	-8	1	-15	i	3	51	1	7	eIF4H FP inh retest=-12;PABP polyA inh retest=3
CCOC(=O)c1ccc(N=C2SC(C(=O)NCCc3ccccc3)CC(=O)N2C)cc1 (stereo unspecified)	-19	-7	-6	i	0	-1	-3	-5
Nc1nc2ccc(C(=O)Nc3ccc(N4CCOCC4)cc3)cc2s1	-16	-24	13	/	/	/	3	-1
Cc1cc(=O)[nH]c(Nc2c(C)n(C)n(-c3ccccc3)c2=O)n1	-10	/	-3	i	-7	-8	5	8
C=CCn1c(SCC(=O)NC)nnc1C12CC3CC(CC(C3)C1)C2	7	5	9	i	-17	-16	-1	-1
CC(=O)Nc1ccc(Nc2c([N+](=O)[O-])c(=O)n(-c3ccccc3)c3ccccc23)cc1	-16	11	6	i	5	6	3	-4
CCCCN(C)CCCNC(=O)C1(O)c2ccccc2NC(=O)N1c1ccc(Cl)cc1 (stereo unspecified)	-9	0	7	i	0	-3	1	2
CCCC(c1nnnn1CC(=O)OCC)N(Cc1cc2c(C)cc(C)cc2[nH]c1=O)C1CCCC1 (stereo unspecified)	-6	/	6	i	-13	14	1	2
COc1ccccc1-c1c(C#N)c(N)nc2c1CCC2	/	24	0	i	6	10	0	-1
O=C(NCC(c1ccco1)N1CCCC1)c1ccc(Cl)c(S(=O)(=O)N2CCc3ccccc32)c1 (stereo unspecified)	-3	5	/	/	/	/	6	-29
CCN1C(=O)C2(C(C(=O)c3ccc(C)o3)=C(O)C(=O)N2CCCN(C)C)c2ccccc21 (stereo unspecified)	-3	-2	15	i	4	-2	1	6
CCOCCOC(=O)C(C)Sc1n[nH]c(=O)[nH]c1=O (stereo unspecified)	-23	/	-5	i	-9	-1	5	11
CCn1c(CSc2nc3ccccc3s2)nnc1SCC(=O)c1ccc2c(c1)OCCO2	-19	-47	-1	i	/	/	-2	-1
Cc1nn(CC(=O)Nc2nnc(CC(=O)N3CCCC3)s2)c(=O)c2ccccc12	-10	5	-35	i	-1	6	1	3
CC(=O)Nc1ccccc1-c1nc2ccc(C(=O)N3CCN(c4cccc(C)c4)C(C)C3)cc2[nH]c1=O (stereo unspecified)	0	23	-10	i	-9	1	7	0
O=C1c2nccnc2C(=O)N1c1ccc(F)cc1	/	11	-3	i	4	-7	-1	0
COc1ccc(CNC(=O)C2CC(c3ccc(C(F)(F)F)cc3)=NO2)cc1 (stereo unspecified)	-13	3	46	i	4	6	3	0
CC12COC3(C(=O)Nc4nccs4)CC1CCC32C (stereo unspecified)	-12	11	1	i	1	-1	0	0
COC(=O)c1ccc(OC(=O)CCc2cc(OC)c(OC)c(OC)c2)cc1	/	-8	-7	i	3	16	0	2
Cc1ccc(C)c(N2CCN(C(=O)CCc3nc(-c4ccc(Cl)cc4)no3)CC2)c1	-18	20	/	/	/	/	3	4
CCCNC(=O)C1CN(S(=O)(=O)c2ccc(C)cc2)c2ccccc2O1 (stereo unspecified)	-7	-6	0	i	0	-1	-1	-2
COc1cccc(CN(C)C(=O)Nc2cccc(C(F)(F)F)c2)c1OC	-7	17	-15	i	0	-10	2	2
CC1CCCC(NC(=O)c2ccc3c(c2)NC(=O)CS3)C1C (stereo unspecified)	-1	-8	-7	i	/	/	-1	0
O=C1C=C(NC(=O)Nc2ccc(Cl)c(Cl)c2)CCC1	/	2	0	i	-6	10	9	-3
Cc1ccc(-c2nn(CC(=O)NCCN3CCOCC3)c(=O)c3ccccc23)cc1	-9	/	3	i	-4	4	1	3
O=C(N/N=C\c1ccc(Sc2ccccn2)o1)c1cccc(Br)c1	-7	-8	-13	i	-7	-5	-3	-3
O=Cc1ccc(F)c([B-](F)(F)F)c1	-24	-11	/	/	/	/	1	3
NC(N)=N/N=C/c1ccccc1OC(F)F	-22	14	-9	i	-2	-4	3	3
C#CCOCCOCCOCCNc1nc(N2CCN(C(=O)CCCCCCCCCCNC(=O)Cn3cc(CCCCCN)nn3)CC2)nc(N2CCN(C(=O)CCCCCCCCCCNC(=O)[C@H]([C@@H](C)CC)n3cc(CCCCCN)nn3)CC2)n1	-12	/	-10	/	/	/	10	6
CCOc1ncccc1C(=O)OCC(=O)Nc1cc(C(C)(C)C)ccc1OC	-10	5	-4	/	/	/	4	-2
COc1ccc(C(CNc2ccc(S(C)(=O)=O)cc2[N+](=O)[O-])N(C)C)cc1OC (stereo unspecified)	-27	4	-3	i	-3	9	/	/

For convenience, two of the compounds above:
SMILES	UUG fidelity	HIV Env fusion	CSC inhib	Rce1 inhib	eIF4H FP inh	PABP polyA inh	MT1-MMP act inh	MT1-MMP act inh RFP	others
CCOc1ncccc1C(=O)OCC(=O)Nc1cc(C(C)(C)C)ccc1OC	-10	5	-4	/	/	/	4	-2
COc1ccc(C(CNc2ccc(S(C)(=O)=O)cc2[N+](=O)[O-])N(C)C)cc1OC (stereo unspecified)	-27	4	-3	i	-3	9	/	/

Further entries:
SMILES	UUG fidelity	HIV Env fusion	CSC inhib	Rce1 inhib	eIF4H FP inh	PABP polyA inh	MT1-MMP act inh	MT1-MMP act inh RFP	others
Cc1cccc(C)c1NC(=O)Cn1c(=O)c2cccn2c2ccccc21	-5	14	-11	i	-6	-6	4	0
Cc1ccccc1CC(=O)NC1CCN(C)CC1	-10	-28	/	i	-2	-8	-2	-4
COc1cc2c(cc1OC)[C@H](C)N(C(=O)COc1ccccc1)CC2	-7	-26	-7	i	-5	-5	4	2
CC(=O)C1=C(O)C(=O)N(c2cccc(Br)c2)C1c1ccccc1Cl (stereo unspecified)	-17	-7	-8	/	7	14	3	2
CCC1=C/C(=C/c2sc3ccccc3[n+]2CC)CC(C)(C)C1	/	16	-7	i	-1	2	/	/
COCCN(C(=O)/C=C/c1ccccc1)c1c(N)n(Cc2ccccc2)c(=O)[nH]c1=O	/	-3	2	i	-3	-18	-12	-2
CC(C)NC(=O)NC(=O)COC(=O)Cc1c(F)cccc1Cl	-2	-6	-8	i	12	19	-1	-1
CCn1nc(C)c(Br)c1C(=O)Sc1ccccc1Cl	-12	-9	7	i	-6	5	-2	-2
CSC1CCCCC1(O)CSc1nc2c(cc1C#N)CCCC2 (stereo unspecified)	/	/	0	i	-19	-5	1	-1
C=CCn1c(NCc2cc(Cl)ccc2O)nc2ccccc21	-3	17	2	i	-2	-1	4	-8
O=C(Nc1ccc(-n2cnnn2)cc1)C1CCCCC1	/	/	-10	i	-15	2	0	1
O=C1c2cccnc2C(=O)N1Cc1ccc(S(=O)(=O)N2CCN(c3ccccc3)CC2)cc1	-9	-2	0	i	-6	4	2	2
CCOc1ccc(-c2noc(CCC(=O)NC3CCCCC3)n2)cc1OC	-10	8	-13	i	-14	3	-2	-1
Cc1ccc(-c2nnc(NC(=O)CCS(=O)(=O)c3ccc(F)cc3)o2)c(C)c1	/	8	29	i	/	/	0	1
O=c1[nH]c(=S)[nH]c(O)c1N=Nc1ccc(-c2ccccc2)cc1[N+](=O)[O-]	/	/	/	i	22	-12	/	/
Cn1c(SCC(=O)Nc2ccc3c(c2)CCC3)nnc1C1CC1	-9	-3	/	/	/	/	-3	-3
Cc1ccc(NC(=O)CN2CCC(NC(=O)c3cccc(F)c3)CC2)cc1C	-8	7	1	i	-5	-22	4	1
CCCn1c(NCc2cccc(OC)c2OC)nc2ccccc21	-19	-80	-10	/	-8	-11	/	/
Cc1ccccc1C(=O)N/N=C/c1ccc(OCC(=O)N2CCCCC2)cc1	-2	14	-3	i	-9	-5	8	0
CCCC(=O)NC(=S)N1CCN(c2ccc([N+](=O)[O-])cc2)CC1	-23	/	15	i	5	6	5	-2
Cc1ccc(-c2noc(CN(C)C(=O)Nc3ccc(F)cc3)n2)cc1	/	12	/	i	2	-15	2	0
CCOC(=O)c1cnc2c(C)cc(C)cc2c1NCCCN1CCOCC1	-1	1	-3	i	3	13	0	-2
COc1ccc(C(=O)NCc2nnc(SCC(=O)Nc3cc(OC)ccc3OC)o2)cc1	-14	3	7	i	16	10	-2	1
O=C1CN2NC(=S)N(c3ccc(Cl)cc3)C2=CN1c1ccc(Cl)cc1	/	6	-4	i	-3	12	3	3
O=C(O)c1ccc(CN2C(=O)c3ccc(Oc4ccc([N+](=O)[O-])cc4)cc3C2=O)cc1	-8	1	1	i	-2	-8	6	-3
CC(C)N1CCC(C)(C(=O)Nc2ccccc2Oc2ccccc2)C1 (stereo unspecified)	-28	23	/	/	/	/	1	4
Cc1noc(C)c1COC(=O)c1cc2ccccc2cc1O	-8	15	-12	i	5	-2	1	-2
O=C1CCC(=O)N1c1ccc(NC2CCN(Cc3ccccc3)CC2)c([N+](=O)[O-])c1	/	22	-5	i	7	1	5	2

From PubChem BioAssay
